Cruzain inh noDet – cruzain (T. cruzi) inhibition without detergent | purified cruzain, Z-FR-AMC fluorescence, no detergent | P25779 | Potency, µM, for inactives: max response, negative = inhibition, most hits filed as inhibitors | AID 1476 | actives 2.3% (n = 200,000); active means well fitted curve in the direction sought with a large enough effect; inconclusive means small, poorly fitted or top-dose-only effect, or another doubt; inactive means no such curve, though single readings can be large; an effect the other way counts as inactive or inconclusive;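 further: plate controls were enzyme without inhibitor for no effect and buffer without enzyme for full effect; nearly all actives have a fitted effect of over 40% in size; top concentration of the series not given in the record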
Target sequence (P25779 123-467 limits assumed): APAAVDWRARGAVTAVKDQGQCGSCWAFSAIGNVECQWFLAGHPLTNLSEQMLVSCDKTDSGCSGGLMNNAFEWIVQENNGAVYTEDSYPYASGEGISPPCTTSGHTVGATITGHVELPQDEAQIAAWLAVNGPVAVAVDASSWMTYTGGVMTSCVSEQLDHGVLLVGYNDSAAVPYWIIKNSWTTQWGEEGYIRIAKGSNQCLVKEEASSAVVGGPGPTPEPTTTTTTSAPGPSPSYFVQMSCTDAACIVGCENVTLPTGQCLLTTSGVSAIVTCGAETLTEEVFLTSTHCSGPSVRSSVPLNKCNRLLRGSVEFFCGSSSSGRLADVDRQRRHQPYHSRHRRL
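Detergent-free condition (0.00005% Triton X-100) in acetate buffer pH 5.5 with DTT. 1.5 nM enzyme and compound were pre-mixed 15 min, then 2 uM Z-FR-AMC substrate added; reaction progress from fluorescence change between first and third reads (60 s).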
SARS PLP yeast – blocks SARS-CoV papain-like protease in a yeast assay; S. cerevisiae expressing SARS-CoV PLpro, growth rescue; control for the full effect not named in the record; Potency, µM (doses to about 32.9 µM), inactives show at the highest dose activity, positive = growth rescue; actives 0.19% (n = 330,000); AID 485353; further: 0% is about no effect; nearly all actives have a fitted effect of over 55% in size; growth read by luminescence after 48 h
NS1 inh – influenza NS1 inhibition; S. cerevisiae slowed by influenza A NS1, growth recovery by OD600; Potency, µM (doses to about 46.1 µM), without a hit: at the highest dose activity, positive = more growth; actives 0.4% (n = 270,000); AID 2326; further: actives are rising curves; nearly all actives have a fitted effect of over 50% in size
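Compounds were scored for reversing the slow growth caused by influenza A NS1 in S. cerevisiae, measured by optical density at 600 nm. Assay medium contained 2% galactose at pH 6.0; NS1-free yeast of the same strain were the positive control.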
Cruzain inh Det – blocks cruzain activity in presence of Triton detergent; P25779; purified cruzain, Z-FR-AMC fluorescence, 0.01% Triton; Potency, µM, for inactives: max response, negative = inhibition, hits mostly inhibitors; actives 0.43% (n = 200,000); AID 1478; active means well fitted curve in the direction sought with a large enough effect; inconclusive means small, poorly fitted or top-dose-only effect, or another doubt; inactive means no such curve, though single readings can be large; an effect the other way counts as inactive or inconclusive;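 further: plate controls were neutral wells for no effect and buffer without enzyme for full effect; nearly all actives have a fitted effect of over 40% in size; top concentration of the series not given in the record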
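Z-FR-AMC hydrolysis (2 uM substrate) by cruzain (1.5 nM) monitored kinetically at ex 360/em 450 nm after 15 min room-temperature compound exposure; 0.01% Triton X-100, pH 5.5, 5 mM DTT.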
MARV entry inh – Marburg virus entry inhibition | Marburg virus pseudotyped entry inhibition, cell reporter; control for the full effect not named in the record; about a third of the inactives were read at about 46 µM | actives 1.8% (n = 300,000) | Potency, µM (top dose mostly 37.8 µM), without a hit: top-dose activity change, negative = inhibition, usual class: inhibitors; active = well fitted inhibition curve with a large enough effect; inconclusive = small, poorly fitted or top-dose-only effect, or effect the other way; inactive = flat fitted curve, though single readings scatter; tested in HEK293 cells; about a fifth of its hits are not listed in these tables; further: on the % scale 0 is the no-effect control and ±100 the full control effect; luciferase read-out
RE007 growth inh – less growth of the S. pombe RE007 Vpr strain; actives 0.21% (n = 360,000); Potency, µM (top dose mostly 92.2 µM), inactives show top-dose activity change, negative = less growth; S. pombe RE007 Vpr strain, BacTiter-Glo ATP luminescence, 24 h; control for the full effect not named in the record; active = well fitted falling curve with a large enough effect; inconclusive = small, poorly fitted or top-dose-only effect; inactive = no such curve, though single readings can be large or run the other way;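 further: on the % scale 0 is the no-effect control and ±100 the full control effect; nearly all actives have a fitted effect of over 50% in size; the assay follows cell death caused by Vpr and the record does not say whether a fall means rescue or toxicity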
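Fission yeast RE007 carrying one integrated HIV-1 vpr copy, seeded at OD 0.01 in PMG+AL medium with 23 nL pinned compound. Grown 24 h at 30 degrees; viability read by BacTiter-Glo luminescence after 5 min.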
Lassa entry inh – blocks Lassa virus binding to or entry into cells; Lassa virus pseudotype entry inhibition, cell reporter; control for the full effect not named in the record; Potency, µM (titrated, usually from 37.9 µM), without a hit: top-dose activity change, negative = inhibition, actives largely listed as inhibitors; actives 1.2% (n = 300,000); AID 540256; active means well fitted inhibition curve with a large enough effect; inconclusive means small, poorly fitted or top-dose-only effect, or effect the other way; inactive means flat fitted curve, though single readings scatter; tested in HEK293 cells; further: on the % scale 0 is the no-effect control and ±100 the full control effect; nearly all actives have a fitted effect of over 50% in size; luciferase read-out
StopGo reporter – lowers the luciferase signal of an FMDV 2A StopGo reporter; human cells with a luciferase reporter of 2A StopGo recoding; control for the full effect not named in the record; Potency, µM (doses to about 57.9 µM), inactives show at the top dose signal change, negative = less light; actives 1.2% (n = 410,000); AID 1159524; active = well fitted falling curve with a large enough effect; inconclusive = small, poorly fitted or top-dose-only effect; inactive = no such curve, though single readings can be large or run the other way; tested in HEK293T cells; further: on the % scale 0 is the no-effect control and ±100 the full control effect; nearly all actives have a fitted effect of over 45% in size; luciferase light after 4 h
The depositor's hits bear a star; ? = inconclusive; / = no result given; & = joins results of further samples; [ ] = another dose, or the depositor's remark. Unless noted, the call rests on the fitted dose curve; in most records, active means well fitted rising curve with a large enough effect; inconclusive means small, poorly fitted or top-dose-only effect; inactive means no such curve, though single readings can be large or run the other way. Potency means the concentration at half of the fitted maximal effect.

SMILES	Cruzain inh noDet	SARS PLP yeast	NS1 inh	Cruzain inh Det	MARV entry inh	RE007 growth inh	Lassa entry inh	StopGo reporter
CCN1CCSc2ccc(C(=O)NCc3cc(Br)ccc3OC)cc21	/	-4.7%	22.9%	/	/	-9.5%	/	0.0%
NC(=O)c1ccsc1NC(=O)c1cc(=O)c2ccccc2o1	-1.1%	-7.0%	33.1%	3.3%	?	11.4%	?	43.9%[activator]
Cc1ccc(-n2cnnn2)cc1Cl	/	-9.7%	/	/	0.7%[46.1 µM]	-16.3%	-23.9%	-10.9%
COc1cccc(-c2noc(CCCC(=O)N3CCOCC3)n2)c1	/	-0.1%	-5.4%	/	/	12.5%	/	16.7%
COc1cccc2cc(C(=O)Oc3ccccc3)c(=O)oc12	/	-7.1%	-7.9%	/	/	-13.4%	/	9.5%
CCN(CC)C(=O)c1[nH]cnc1C(=O)N[C@@H](CCCCNC(=O)OC(C)(C)C)C(=O)OC(C)(C)C	/	-0.8%	1.7%	/	/	7.8%	/	6.7%
Cc1ccccc1-n1c(=O)c2ccccc2n2cnnc12	-4.1%	0.5%	4.1%	-2.1%	0.0%	9.0%[3.69 µM]	?	-5.9%
Cc1cccc(N2CCN(S(=O)(=O)c3cccc4nonc34)CC2C)c1 (stereo not given)	/	-0.9%	/	/	?	3.8%	17.3%[46.1 µM]	?
COCCCn1c(=O)c2sccc2n2c(CCCC(=O)Nc3cccc(OC)c3)nnc12	6.3%	/	/	0.4%	/	/	2.1%[46.1 µM]	-6.1%
COc1ccc(C2C(C(=O)NCc3ccccc3)=C(C)Nc3ncnn32)cc1OC (stereo not given)	-0.1%	-6.6%	-2.7%	3.4%	6.0%	1.4%	3.3%	13.0%
C=CCN(CC=C)C(=O)COC(=O)c1ccc(Sc2ncn[nH]2)c([N+](=O)[O-])c1	/	3.9%	-1.2%	/	-0.2%[46.1 µM]	8.5%	1.4%	-19.4%
CCn1nnc(NC(=O)c2sc3ccccc3c2Cl)n1	-1.5%	-42.7%	-22.6%	-1.9%	?	?	?	16.9%

The final 2 compounds of the part above are carried over, then new ones follow.
SMILES	Cruzain inh noDet	SARS PLP yeast	NS1 inh	Cruzain inh Det	MARV entry inh	RE007 growth inh	Lassa entry inh	StopGo reporter
C=CCN(CC=C)C(=O)COC(=O)c1ccc(Sc2ncn[nH]2)c([N+](=O)[O-])c1	/	3.9%	-1.2%	/	-0.2%[46.1 µM]	8.5%	1.4%	-19.4%
CCn1nnc(NC(=O)c2sc3ccccc3c2Cl)n1	-1.5%	-42.7%	-22.6%	-1.9%	?	?	?	16.9%
CCOc1ccc(/C=N/NC(=O)Cc2csc(Nc3cccc(C(F)(F)F)c3)n2)c(OCC)c1	?	-1.2%	22.0%	3.5%	?	4.1%	?	?
COC(=O)c1ccc(-n2nnnc2SCC(=O)Nc2ccccc2F)cc1	/	1.7%	-2.4%	/	/	-2.0%	/	-28.9%
O=c1c(-c2ccco2)[n+]([O-])c2ccccc2n1OCc1ccccc1[N+](=O)[O-]	/	0.6%	7.5%	/	8.2%[46.1 µM]	-9.5%	0.5%[46.1 µM]	-12.7%
COC(=O)c1ccc(=O)n(-c2ccc(OC)cc2)c1	4.5%	-9.1%	-7.9%	3.2%	4.1%	7.2%	13.3%	9.7%
CCN(CC)CCNC(=O)c1cc2c(=O)n(C)c3ccccc3c2n1C	1.0%	-0.2%	7.3%	-17.0%	/	-2.8%	/	6.0%
COc1ccc(NC(=O)CN(C)C(=O)c2ccc(=O)[nH]c2)cc1	/	2.6%	-3.4%	/	13.0%[46.1 µM]	16.6%	0.1%	0.8%
CCn1ncc([N+](=O)[O-])c1C(=O)Nc1ccc(C)c(C)c1	/	-8.4%	-1.0%	/	/	-13.1%	/	9.9%
O=C1CC2(CCN(C(=O)COc3ccc(F)cc3)CC2)Oc2ccccc21	/	0.1%	/	/	-1.2%[46.1 µM]	1.7%	?	-18.4%
Cc1ccc(C(=O)Cn2nnc(-c3ccccc3)n2)cc1	/	-0.2%	-2.4%	/	15.0%	-16.1%	8.0%	20.5%
Cc1cc(=O)oc2cc(OCC(=O)OCC(=O)Nc3ccc4ccccc4c3)ccc12	?	?	5.0%	-14.2%	-1.4%	0.1%	3.0%	8.0%
CN1CCN(NC(=O)c2cccs2)CC1	/	3.8%	/	/	21.9%[46.1 µM]	-5.3%	/	1.9%
N#Cc1cccnc1N1CCN(C(=O)c2ccccc2)CC1	/	-1.4%	-3.6%	/	0.3%[46.1 µM]	0.3%	22.8%[46.1 µM]	-4.2%
O=[N+]([O-])c1ccc(OC(F)F)c(/C=N/n2cnnc2)c1	/	-1.1%	-4.4%	/	-1.1%[46.1 µM]	-4.9%	8.5%	-0.4%
N#Cc1ccccc1CN1C(=O)c2ccccc2S1(=O)=O	/	-2.1%	10.9%	/	/	2.5%	/	-10.6%
O=C(COc1ccc(/C=N/NC(=O)c2ccccc2)cc1)Nc1ccc([N+](=O)[O-])cc1	12.6µM*	-3.4%	-3.5%	2.3%	1.0%	2.2%	?	-4.0%
COc1ccc(-c2c3c(=O)n(C)c(=O)n(C)c3cn2NC(C)=O)cc1	-4.3%	-1.0%	9.8%	-0.1%	1.7%	13.4%	2.9%	/
OC1CCCCC1N1CCC(c2ccccc2)CC1 (stereo not given)	2.2%&6.6%&-5.5%	12.4%	9.4%&-2.9%	3.2%&0.7%&3.3%	?	-6.9%	-22.1%&-0.3%	-19.2%&-6.7%
CCN1CCN(C(CNS(=O)(=O)c2ccc(OC)cc2)c2cccnc2)CC1 (stereo not given)	1.4%	-0.5%	-5.8%	0.4%	/	13.8%	/	7.7%
COc1ccc(CC(=O)N(Cc2ccccc2)C(C)C)cc1	/	-3.5%	1.1%	/	/	8.0%	/	-6.6%
O=C(O)c1cc(-c2ccc(-c3c(-c4ccc5c(c4)OCO5)noc3-c3ccsc3)cc2)nc2ccccc12	/	-2.0%	-2.8%	/	/	-0.5%	/	-12.9%
Fc1ccccc1C1c2cccn2CCN1C(=S)Nc1cccc(Br)c1 (stereo not given)	/	-2.8%	/	/	14.3%[46.1 µM]	4.6%	/	9.5%
COc1ccc2nc(SCC(=O)N3CCCCC3)c(C#N)cc2c1	/	-0.3%	4.8%	/	8.5%[46.1 µM]	4.8%	-26.6%	33.1%[activator]
CCNc1nc(NC(C)C)nc(N(C#N)CC(=O)OC)n1	/	2.0%	/	/	?	1.4%	14.4%	-21.3%
Cc1cc(C(=O)COC(=O)c2cccc(S(=O)(=O)N(C)C)c2)c(C)n1CC1CCCO1 (stereo not given)	/	7.1%	/	/	-27.1%	13.7%	-22.7%	25.1%

Part of the list above, with two lines to a compound.
Under each structure – Cruzain inh noDet, SARS PLP yeast, NS1 inh, Cruzain inh Det, MARV entry inh, RE007 growth inh, Lassa entry inh, StopGo reporter
> Fc1ccccc1C1c2cccn2CCN1C(=S)Nc1cccc(Br)c1 (stereo not given)
  /, -2.8%, /, /, 14.3%[46.1 µM], 4.6%, /, 9.5%
> COc1ccc2nc(SCC(=O)N3CCCCC3)c(C#N)cc2c1
  /, -0.3%, 4.8%, /, 8.5%[46.1 µM], 4.8%, -26.6%, 33.1%[activator]
> CCNc1nc(NC(C)C)nc(N(C#N)CC(=O)OC)n1
  /, 2.0%, /, /, ?, 1.4%, 14.4%, -21.3%
> Cc1cc(C(=O)COC(=O)c2cccc(S(=O)(=O)N(C)C)c2)c(C)n1CC1CCCO1 (stereo not given)
  /, 7.1%, /, /, -27.1%, 13.7%, -22.7%, 25.1%

The results go on:
SMILES	Cruzain inh noDet	SARS PLP yeast	NS1 inh	Cruzain inh Det	MARV entry inh	RE007 growth inh	Lassa entry inh	StopGo reporter
Nc1nc(-c2cccs2)c(CC(=O)O)s1	/	0.1%	/	/	6.8%[46.1 µM]	2.6%	7.3%[46.1 µM]	1.3%
COc1ccc(OCC(=O)N(C)Cc2ccccc2)cc1	-0.3%	2.0%	-76.7%	4.4%	6.3%	4.4%	?	38.6%[activator]
OCc1ccccc1O[C@@H]1O[C@H](CO)[C@@H](O)[C@H](O)[C@H]1O	-8.4%	-10.2%	2.6%	-2.4%	/	11.2%	/	-18.5%
O=C(CN1CCOCC1)Nc1ccc2c(c1)OCCO2	/	-0.2%	4.4%	/	/	4.0%	/	28.3%
O=C(COCc1cc(-c2ccc3c(c2)OCO3)on1)Nc1cccnc1Cl	/	-2.7%	-10.5%	/	19.2%[46.1 µM]	-8.9%	2.1%[46.1 µM]	33.4%[activator]
O=C(CC(c1ccccc1)c1ccccc1O)N1CCCCC1 (stereo not given)	/	4.5%	16.4%	/	/	-6.5%	/	20.2%
COc1ccc(CNC(=O)c2ccc(CNc3c(NC4CCCCC4)c(=O)c3=O)cc2)cc1	?	-15.5%	16.6%	1.6%	?	-1.5%	4.5%	5.3%
COC(=O)c1cc(S(=O)(=O)Nc2ccc(C)c(F)c2)c[nH]1	/	10.0%	-21.5%	/	/	-4.4%	/	-9.9%
CSCCC(NS(=O)(=O)c1ccc(C)cc1)C(=O)Nc1ccc(C)cn1 (stereo not given)	/	4.0%	/	/	20.6%	11.2%	8.7%	0.1%
CCn1c(=S)sc2c(=O)n(CC(=O)Nc3cccc(Cl)c3)c(C)nc21	/	-18.7%	-1.6%	/	/	-7.5%	/	?
COc1ccc(CNS(=O)(=O)c2c(C(=O)N3CCCCCC3)c(C)n(C)c2C)cc1	/	4.4%	-10.5%	/	12.8%[46.1 µM]	4.2%	29.1%[46.1 µM]	17.7%
Cc1cc2c(cc1S(=O)(=O)NCc1ccccc1)NC(=O)CO2	/	-2.3%	/	/	-13.1%[46.1 µM]	-0.9%	13.3%	36.0%[activator]
Cc1ccccc1OCC(O)COc1ccccc1C	/	/	/	/	2.8%[46.1 µM]	?	?	15.7%
CN(C)S(=O)(=O)n1cc(/C=C(\NC(=O)c2ccccc2)C(=O)NCCN2CCOCC2)c2ccccc21	/	0.7%	0.4%	/	/	14.0%	/	2.7%
